From PubChem BioAssay
HPGD block = blocks human HPGD enzyme activity | P15428 | purified HPGD, NADH fluorescence kinetic, PGE2 substrate | Potency, µM, for inactives: at the top dose activity change, negative = inhibition, most hits filed as inhibitors | actives 4.3% (n = 150,000) | AID 894; active = well fitted inhibition curve with a large enough effect (not every such curve was filed as active); inconclusive = small, poorly fitted or top-dose-only effect, or another doubt; inactive = no such curve, though single readings can be large or run the other way;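 note: top concentration of the series not given in the record; plate controls included wells without enzyme; inactives centre near -10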
Target sequence (P15428 whole entry, looked up): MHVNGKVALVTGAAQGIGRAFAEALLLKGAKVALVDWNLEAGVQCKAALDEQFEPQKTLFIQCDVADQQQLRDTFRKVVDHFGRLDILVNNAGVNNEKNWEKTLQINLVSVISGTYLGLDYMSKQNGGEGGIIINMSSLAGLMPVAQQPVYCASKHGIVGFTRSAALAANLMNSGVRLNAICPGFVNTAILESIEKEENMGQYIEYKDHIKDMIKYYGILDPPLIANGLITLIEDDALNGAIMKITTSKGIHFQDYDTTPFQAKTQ
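20 nM HPGD preincubated 15 min at room temperature with compound in 50 mM Tris-HCl pH 8, 0.01% Tween 20. Started with 1 mM NAD+ and 30 uM prostaglandin E2; NADH fluorescence (360/450 nm) read 5 times over 30-s intervals, last minus first.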
Active calls of the source: *; ? = inconclusive. % is set by controls: 0 for no effect and ±100 for the full control effect; potency is the fitted concentration of half-maximal effect.

HPGD block | smiles
-7% | CCOC(=O)c1cccc(NC(=O)C2CCN(S(=O)(=O)c3cnc[nH]3)CC2)c1
-8% | CC(=O)Oc1ccc(-c2csc(Nc3cccnc3)n2)cc1
-12% | COc1ccc(-c2[nH]ncc2C=O)cc1
-3% | CCOC(=O)N1CCC(NC(=O)CC(NS(=O)(=O)c2ccc(C)cc2)c2ccco2)CC1 (centres undefined)
-5% | CC(C)(C)c1cc(NC(=O)c2cccnc2)no1
-11% | CC(=O)Nc1cccc(N2CCCC2=O)c1
-30% | O=C(CSCc1c(Cl)cccc1Cl)Nc1ccc2c(c1)OCO2
-27% | CCOc1ccc(S(=O)(=O)N2CCN(c3ccccc3)CC2)c2cccnc12
-16% | CCOC(=O)c1ccc(NC(=O)Nc2cc(C)on2)cc1
4µM* | COc1cc(/C=C2\SC(=N)N(c3ccc4c(c3)OCO4)C2=O)cc(OC)c1O
-12% | CCOc1ccc(NC(=O)COC(=O)Cn2cnnn2)cc1OCC
1% | O=C(/C=C\c1ccco1)Nc1cc([N+](=O)[O-])ccc1F

Marked active in HPGD block (from the list above):
HPGD block | smiles
4µM* | COc1cc(/C=C2\SC(=N)N(c3ccc4c(c3)OCO4)C2=O)cc(OC)c1O

A draw from above in order of formula weight, low to high.
HPGD block | smiles
-12% | COc1ccc(-c2[nH]ncc2C=O)cc1
-5% | CC(C)(C)c1cc(NC(=O)c2cccnc2)no1
1% | O=C(/C=C\c1ccco1)Nc1cc([N+](=O)[O-])ccc1F

(more compounds)
HPGD block | smiles
-7% | Cc1ccc(CN2CCNC2=O)cc1
-6% | O=C(CCC(=O)OCC(=O)c1ccc(-c2ccccc2)cc1)Nc1cccc(Cl)c1
? | Cc1ccc(-c2cc(-c3nnc(SCC(=O)NCC(C)C)n3N)c3ccccc3n2)cc1
-7% | O=C(Nc1ccccc1C(=O)N1CCOCC1)C1COc2ccccc2O1 (centres undefined)
-15% | O=C(O)c1cc2c(cc1Br)OCCCO2
-13% | CCCCC(=O)NC(=S)Nc1cccc(NC(=O)CC)c1
-23% | Cc1cc(NC(=O)CCC(=O)N(Cc2ccco2)C(C(=O)NC2CCCCC2)c2ccccc2)no1 (centres undefined)
? | COc1cc(CNc2cccc(C(=O)O)c2)cc(Br)c1OCC(=O)NC(C)(C)C
-12% | O=C(Nc1ccccc1Cl)c1ccc(S(=O)(=O)N2CCOCC2)cc1
-10% | COC(=O)C(C(=O)OC)C(C(=O)OC)C(C(=O)OC)C(=O)OC
? | O=C(Nc1ccc(N2CCOCC2)c(Cl)c1)C1CCCCC1
-20% | Cc1nc2ccccn2c1C(=O)NCC(C)C

Six of these compounds in another layout:
SMILES,HPGD block
Cc1ccc(CN2CCNC2=O)cc1,-7%
O=C(CCC(=O)OCC(=O)c1ccc(-c2ccccc2)cc1)Nc1cccc(Cl)c1,-6%
Cc1ccc(-c2cc(-c3nnc(SCC(=O)NCC(C)C)n3N)c3ccccc3n2)cc1,?
O=C(Nc1ccccc1C(=O)N1CCOCC1)C1COc2ccccc2O1 (centres undefined),-7%
O=C(O)c1cc2c(cc1Br)OCCCO2,-15%
CCCCC(=O)NC(=S)Nc1cccc(NC(=O)CC)c1,-13%

(cont.)
HPGD block | smiles
-6% | CCCCN(C)CCCNC(=O)c1ccc2c(c1)NC(=O)C(N1CCOCC1)S2 (centres undefined)
1% | CC(=O)Nc1ccccc1OC(=O)N1CCOCC1
-10% | Cc1cc(OCC[N+]2(C)CCCCC2)nc2ccccc12
? | O=C1Cc2ccccc2Sc2ccc(Cl)cc21
-10% | O=C(c1cccc(C(=O)N2CCN(c3ncccn3)CC2)c1)N1CCN(c2ncccn2)CC1
-6% | COC(=O)Cc1csc(Nc2c(C)n(C)n(-c3ccccc3)c2=O)n1
-6% | CCCN1C(=O)/C(=C/C=C2\N(CC)c3ccccc3C2(C)C)SC1=S
-25% | C=CCN1C(=O)C(Cc2ccc(OC)cc2)S/C1=N/N=C/c1ccco1 (centres undefined)
-15% | Cc1cc2oc(=O)cc(-c3ccccc3)c2c(C)c1-c1ccc(O)cc1
-12% | FC(F)(F)c1cccnc1N1CCN(c2ncnc3nc[nH]c23)CC1
-6% | CC(C)CC(=O)NC1(C(F)(F)F)C(=O)Nc2c1c(=O)[nH]c(=O)n2Cc1ccco1 (centres undefined)
-18% | COc1cccc(Oc2ccc(N)cn2)c1
-8% | CNC(=O)N(C1=NCC(C)(C)S1)c1ccc(F)c(Cl)c1
-8% | COCCNc1nc(C(C)(C)C)nc2c1nnn2Cc1ccccc1Cl
-1% | O=C1NC(Nc2ccccn2)(C(F)(F)F)C(=O)N1c1ccc(F)cc1 (centres undefined)
-3% | COC(=O)c1ccc(NC(=O)C2CCCN2S(=O)(=O)c2ccc(C)cc2)cc1 (centres undefined)
-4% | Cn1c(N)c(C(=O)COC(=O)CCc2c[nH]c3ccccc23)c(=O)n(C)c1=O
-6% | Cc1cc(S(=O)(=O)N2CCN(c3ccc(F)cc3)CC2)c(C)s1
-30% | CC(=O)NC1=C(C#N)C(c2ccccc2)c2c(ccc3ccccc23)O1 (centres undefined)
-3% | CC(C)(C)N1C(=O)c2ccc(C(=O)Nc3nccs3)cc2C1=O
-11% | CCn1c(C)cc2c(c1=O)C(c1ccncc1)C(C#N)=C(N)O2 (centres undefined)
-22% | Cc1cccc(NC(=O)COC(=O)c2ccccc2-c2nc3ccccc3s2)c1C
0% | COc1ccc(C(=O)N2CCC[C@@]3(CCN(c4ccncc4)C3)C2)cc1
-23% | O=C(Cc1ccccc1)N/N=C/c1ccccc1F
-13% | CC(C)CNC(=S)NC1CC2CCCC(C1)N2Cc1cccs1 (centres undefined)
-3% | Cc1cc(NC(=O)c2cc3n(n2)C(C(F)(F)F)CC(c2ccc(Cl)c(Cl)c2)N3)no1 (centres undefined)
-20% | O=C(NCc1ccccc1)/C(=N\O)c1ccccc1
-18% | COc1ccc(/C(O)=C2\C(=O)C(=O)N(CC3CCCO3)C2c2cc(OC)ccc2OC)cc1 (centres undefined)
-27% | CCN(CC)CCN1C(=O)C(=O)/C(=C(/O)c2c(C)[nH]c(C(=O)OC)c2C)C1c1cccs1 (centres undefined)
-20% | C=CCN(c1ccc(C(=O)NCCc2ccccc2)cc1)S(C)(=O)=O
-7% | Cn1c(=O)c2c(nc(SCC(=O)N3CCc4ccccc43)n2Cc2ccccc2)n(C)c1=O
? | O=C(N/N=C/c1cccc(F)c1)c1cc(-c2ccco2)nc2ccccc12
-1% | O=c1[nH]c(CS(=O)(=O)c2ccccc2)nc2ccccc12
-14% | O=C(Cn1[nH]c(=O)c2ccccc2c1=O)OCC(=O)N(Cc1ccccc1)Cc1ccccc1
-4% | COC(=O)CC1[C@@]2(C)C[C@@]34OC5(C)OC6(CC[C@@]7(C)C(c8ccoc8)OC(=O)C(C(C)=O)C7[C@]6(O5)C(O)[C@@]3(O)C2O)[C@]14C (some centres undefined)
-2% | CCOc1ccccc1/C=C(/NC(=O)c1ccccc1)C(=O)N(CC)CC
-4% | Cc1oc2ccc(OC(=O)c3cccs3)cc2c1C(=O)OC(C)C
-4% | O=C(c1cccc(F)c1)N1CCC2(CCN(Cc3ccccc3)CC2)CC1
35µM* | CC(C)=CCCC(C)NC(=O)NC1CCCCC1 (centres undefined)
-7% | Cn1cnc([N+](=O)[O-])c1S(=O)(=O)c1ccc(Cl)cc1
-15% | Cc1csc(N)n1
-20% | COC(=O)Cc1ccc(N(Cc2ccccc2F)S(=O)(=O)c2ccc(Br)cc2)cc1
0% | Cc1cnc(NC(=O)CSc2nnc(C)s2)s1
? | COc1cc(C(=O)Nc2nc(C)c(Cc3ccc4c(c3)OCO4)s2)cc(OC)c1OC
? | CN=C(Nc1ccccc1OC)SC1CC(=O)N(c2ccc(C(=O)OC)cc2)C1=O (centres undefined)
? | Cc1onc(-c2ccccc2)c1C(=O)Nc1sc2c(c1C#N)CCC2
2.8µM* | N#Cc1c(Cl)nc(SCc2ccccc2)nc1-c1ccccc1
16µM* | CCOC(=O)CC(=O)CSc1nc2nc(C)cc(C)n2n1

3 compounds drawn at random from the list so far:
HPGD block | smiles
-4% | O=C(c1cccc(F)c1)N1CCC2(CCN(Cc3ccccc3)CC2)CC1
2.8µM* | N#Cc1c(Cl)nc(SCc2ccccc2)nc1-c1ccccc1
-7% | Cn1cnc([N+](=O)[O-])c1S(=O)(=O)c1ccc(Cl)cc1

Next part.
HPGD block | smiles
-3% | O=[N+]([O-])c1ccc(Cl)c(/C=N/N2CCN(Cc3ccccc3Cl)CC2)c1
-14% | Cc1ccc(NC(=O)CSCc2c(C)noc2C)cc1C
? | O=C(Nc1cc(C(F)(F)F)ccc1N1CCOCC1)C1Cc2ccccc2CN1C(=O)c1ccco1 (centres undefined)
-11% | Cc1cccc(NC(=S)N/N=C/c2cccc([N+](=O)[O-])c2)c1
-1% | Cc1noc(C)c1COC(=O)COc1cccc2c1OC(C)(C)C2
-24% | O=C(Nc1nnc(SCc2ccc(Cl)cc2Cl)s1)C1COc2ccccc2O1 (centres undefined)
-23% | CC1CCCCC1NC(=O)COC(=O)c1ccc(S(=O)(=O)NCc2ccco2)cc1 (centres undefined)
-9% | O=C1c2ccccc2C(=O)N1CCC(=O)N1CCCc2ccccc21
4.5µM* | Cc1cc(C)c2c(=O)n(CC(=O)N3CCC(Cc4ccccc4)CC3)sc2n1
-18% | Cc1ccc(/C=N/NC(=O)c2nc3nc(C)cc(C)n3n2)cc1
-9% | COC1(C2=NCCN2)COc2ccccc2O1 (centres undefined)
-11% | COc1cccc(CN2CCN(c3cccc(C(F)(F)F)c3)CC2)c1OC
8% | COc1ccc(C)cc1NC(=O)C(Sc1nnc2ccccn12)c1ccccc1 (centres undefined)
-4% | COCCN(C(=S)Nc1ccc(OC)cc1)C1CCN(C(C)C)CC1
1% | O=C(NC(NCc1ccccc1)C(Cl)(Cl)Cl)c1cccnc1 (centres undefined)
4% | O=C(O)CCn1c(=S)oc2ccccc21
? | CC(=O)NC(=S)Nc1ccc(-c2nc3ccc(C)cc3s2)cc1
-3% | CS(=O)(=O)Nc1nnc(SCC(=O)Nc2cccc([N+](=O)[O-])c2)s1
-5% | C[C@@]12C=Cc3occc3C1CC[C@@]13C[C@@H](CCC12)[C@@](O)(CO)C3 (some centres undefined)
-22% | CCOC(=O)c1c(C)[nH]c(C(=O)OCC(=O)Nc2ccc(OC)c(Cl)c2)c1C
? | O=C(CCSCc1ccc(Cl)cc1)NCCc1ccccc1
-9% | CC(c1nc2ccccc2o1)N1C(=O)c2ccccc2C1=O (centres undefined)
-3% | CCOC(=O)c1cccc(NS(=O)(=O)c2c(C)[nH]c(=O)[nH]c2=O)c1
-2% | CC(=O)Nc1ccccc1OCc1nnc(-c2cccs2)o1
-11% | O=C(c1cc(-c2cccs2)on1)N1CCCc2ccccc21
-10% | O=C(CCN1CCCCC1)NCNC(=O)CCN1CCCCC1
? | Cc1cc(C)n2c(SCc3c(C)noc3C)nnc2n1
3% | O=C(NCc1cccs1)N[C@@H](Cc1ccccc1)C(=O)O
20µM* | O=C(CSCc1ccco1)c1ccc(Cl)s1
-7% | O=C(COC(=O)C1CC1)c1c[nH]c2ccccc12
-15% | COc1ccc(Cc2nnc(NS(C)(=O)=O)s2)cc1
2% | CCC(C)(C(=O)NC1CCCCC1)N(Cc1ccco1)C(=O)c1ccc2c(c1)OCO2 (centres undefined)
? | Cc1ccc2nc3c(cc(C(=O)NCc4cccnc4)c(=N)n3C(C)C)c(=O)n2c1
? | Nc1c(C(=O)NC2CCCCC2)nsc1C(=O)OCC(=O)NC1CCCCC1
-14% | CCc1ccc(N/C(SC)=C(/C#N)C(N)=O)cc1
-7% | CC(Oc1ccc(Cl)cc1Cl)C(=O)NNC(=O)C(=O)N1CCCCC1 (centres undefined)
-19% | COc1ccc(-c2noc(COc3ccc4c(c3)OCO4)n2)cc1OC
-10% | O=C(CN1CCN(c2ncc(C(F)(F)F)cc2Cl)CC1)Nc1ccc2c(c1)OCO2
-15% | CCOC(=O)COc1ccc(S(=O)(=O)Nc2ccc3c(c2)OCO3)cc1
4% | O=C(NCCCN1CCOCC1)C1CCC(=O)N1C1CCCCC1 (centres undefined)
-9% | Cc1cc2cc(C)c3nnc(SCc4ccccn4)n3c2cc1C
-23% | Cc1cc(=O)[nH]c(SCC(=O)Nc2ccc(S(=O)(=O)N3CCCCC3)cc2)n1
-5% | CC(C)CN1CCCC2(CCN(C(=O)c3cccc(F)c3)CC2)C1
-1% | CN1C(=O)C(O)(C2OC(C)(C)CCC2=O)c2ccccc21 (centres undefined)
-4% | C#CCN(C)CC/C=C1\c2ccccc2CSc2ccccc21
-11% | Cc1nn(C)c(C(=O)Nc2ccc(Br)cc2F)c1Br
-9% | Cc1ccc(-n2nnnc2-c2cnoc2-c2cccc(F)c2)cc1
-22% | CC(C)n1cnc2cc(NCc3nc4ccccc4n3C)ccc21
0% | O=C(CCCN1C(=O)CCC1=O)Nc1ccc(Cl)c(C(F)(F)F)c1
-21% | COc1cccc(C2Cc3ccccc3C(=O)O2)c1 (centres undefined)
0% | Cc1ccc(C(=O)N[C@H](C(=O)OCC(=O)NC2CCS(=O)(=O)C2)C(C)C)cc1 (some centres undefined)
-11% | CC1CCN(S(=O)(=O)c2ccc3[nH]c(=O)cc(C(=O)O)c3c2)CC1
-24% | COC(=O)c1c(NC(=O)c2cccnc2)sc(C(=O)N(C)C)c1C
-3% | Cc1csc(NC(=O)CSc2nnc(-c3cc(C)on3)o2)n1
-24% | COc1ccc(Cn2c(C3CC3)nc3ccc(NC(C)=O)cc3c2=O)cc1
-1% | CC(C)CC(=O)NNC(=O)C(C)C
-17% | CCN(CC)S(=O)(=O)c1cccc(NC(=O)Nc2cccc(C(F)(F)F)c2)c1

A portion of the library; rates above refer to the full screens.
